D2 ag – agonists of human D2 dopamine receptor (beta-arrestin); P14416; DiscoveRx PathHunter D2 beta-arrestin, luminescence, 90 min; 100% = 57 uM dopamine signal; activation, % (no concentration beside the values); 0.084% of 360,000 active; in the data active = activation above about 40%; inconclusive = about 15% to 40%; inactive = below about 15%; also: compound concentration not given in the record; the text of the record calls up to 30% inactive
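DiscoveRx PathHunter D2 beta-arrestin cells (2,100/well) attached overnight, then compound-stimulated 90 min at 37 C in HBSS/10 mM HEPES/0.1% Tween-20 buffer; beta-galactosidase complementation read by luminescence after 1 h at ambient temperature. Dopamine 57 uM final (EC100) as control.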
TRPV1 potentiator – enhances activation of the human vanilloid receptor TRPV1; 0.02% of 320,000 active; potentiation, % at 8.33 µM; TRPV1-expressing cells, Fluo-8 calcium influx, capsaicin EC20 potentiation; host cell line not named in the record; control for the full effect not named in the record; Q8NER1; AID 540277; active means potentiation above 80%; inconclusive means 30% to 80%; inactive means below 30%; also: 0% is about no effect
Target sequence (Q8NER1 whole entry, looked up): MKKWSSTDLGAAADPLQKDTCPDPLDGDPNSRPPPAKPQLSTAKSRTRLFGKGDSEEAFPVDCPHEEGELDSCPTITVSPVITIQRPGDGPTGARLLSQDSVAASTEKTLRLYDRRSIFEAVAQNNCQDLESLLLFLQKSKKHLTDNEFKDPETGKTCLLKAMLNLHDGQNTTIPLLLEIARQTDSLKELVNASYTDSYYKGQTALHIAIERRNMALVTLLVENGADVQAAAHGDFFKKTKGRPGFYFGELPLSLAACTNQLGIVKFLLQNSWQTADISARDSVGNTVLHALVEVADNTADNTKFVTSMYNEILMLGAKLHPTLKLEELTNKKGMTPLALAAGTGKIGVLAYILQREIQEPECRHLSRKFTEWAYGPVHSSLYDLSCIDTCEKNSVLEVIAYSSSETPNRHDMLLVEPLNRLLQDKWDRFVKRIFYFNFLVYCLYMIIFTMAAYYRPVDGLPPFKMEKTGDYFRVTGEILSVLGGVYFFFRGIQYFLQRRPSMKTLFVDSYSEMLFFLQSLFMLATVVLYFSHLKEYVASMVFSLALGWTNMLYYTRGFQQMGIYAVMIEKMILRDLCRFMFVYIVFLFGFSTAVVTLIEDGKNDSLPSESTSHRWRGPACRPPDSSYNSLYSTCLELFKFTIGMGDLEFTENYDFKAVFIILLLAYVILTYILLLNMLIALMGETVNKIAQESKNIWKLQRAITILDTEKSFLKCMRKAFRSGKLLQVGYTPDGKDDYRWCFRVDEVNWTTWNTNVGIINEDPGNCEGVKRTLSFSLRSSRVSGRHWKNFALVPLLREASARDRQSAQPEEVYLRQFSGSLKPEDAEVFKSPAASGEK
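TRPV1-expressing cells were cultured overnight at 35.5C and loaded with Fluo-8 calcium dye for 40 to 90 min at room temperature. After a 10 s baseline, compound was added and calcium influx was read kinetically for 3 min (ex 480/em 520 nm).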
Six1-Eya2 blk – blocks human Six1 binding to Eya2; AlphaScreen GST-Six1/His-Eya2 binding, biochemical; active compounds read low; control for the full effect not named in the record; activity change, % (test concentration not listed); 0.56% of 360,000 active; AID 651725; in the data active = activity change below about -65%; inconclusive = about -30% to -65%; inactive = above about -30%; also: % is scaled to controls: 0 for no effect and ±100 for the full control effect
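GST-Six1 + His-Eya2 (5X stock: 250/500 nM); Tris pH 8.0, 300 mM NaCl, 0.05% BSA, 0.02% Tween 20; GSH donor/Ni acceptor beads; 1 h 37 °C dark; AlphaScreen readout.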
Sfp inh – inhibitors of Bacillus subtilis Sfp phosphopantetheinyl transferase | Q9F4F7 | Biochemical Sfp PPTase activity, qHTS | Potency, µM, without a hit: max response, negative = inhibition, usual class: inhibitors | 3.5% of 310,000 active; active = well fitted inhibition curve with a large enough effect; inconclusive = small, poorly fitted or top-dose-only effect, or another doubt; inactive = no such curve, though single readings can be large or run the other way;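 also: the enzyme is Sfp with the accession as filed and its product quenches rhodamine fluorescence; potency is read from the fitted curve at half-maximal effect; 0% = enzyme reaction without inhibitor and -100% = no enzyme wells; top concentration of the series not given in the record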
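After 15 min at room temperature with compound, 15 nM Sfp received 5 uM rhodamine-CoA plus 12.5 uM BHQ-2-ybbR (50 mM Hepes pH 7.6, 10 mM MgCl2). Rate came from the fluorescence difference over 30 min, ex 525/em 598 nm.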
D2 potentiator – positive allosteric modulators of human D2 dopamine receptor; P14416; DiscoveRx D2 beta-arrestin cells, luminescence, 90 min; 100% = 57 uM dopamine signal; potentiation, % (no concentration beside the values); 0.23% of 360,000 active; active = potentiation of 50% or more; inconclusive = 30% to 50%; inactive = 30% or less;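 also: compound concentration not given in the record; tested on top of an EC20 dose of dopamine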
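PathHunter D2 cells, attached overnight at 37 deg C, received compound in DMSO plus dopamine at EC20 (50 nM final) for 90 min at 37 deg C. Beta-arrestin recruitment was read as luminescence after 1 h with detection reagent at ambient temperature.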
CtBP-E1A inh – blocks the CtBP interaction with E1A; AlphaScreen GST-E1A/His-CtBP binding, 1536-well; active compounds read low; control for the full effect not named in the record; activity change, % (test concentration not listed); 0.49% of 340,000 active; in the data active means activity change below about -65%; inconclusive means about -30% to -65%; inactive means above about -30%; also: % is scaled to controls: 0 for no effect and ±100 for the full control effect
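Protein mix (5X: 125 nM each GST-E1A, His-CtBP) was incubated with pinned compound 2 h at 37 deg C in dark, in 50 mM Tris pH 8.0 buffer with 300 mM NaCl. Glutathione donor and nickel acceptor beads followed; AlphaScreen signal read after 1 h.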
PINK1 modulator – changes PINK1 expression. PINK1 immunofluorescence, high-content cytometry, 24 h. AID 624263. Potency, µM (titrated, usually from 76.6 µM), for the others: top-dose activation (PINK1 increase), most hits filed as activators. 0.2% of 410,000 active; active = well fitted activation curve with a large enough effect; inconclusive = small, poorly fitted or top-dose-only effect; inactive = flat fitted curve, though single readings scatter; cell line not stated here;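 also: potency is read from the fitted curve at half-maximal effect; % of control where 0% means no effect; nearly all actives have a fitted effect of over 65% in size; a mitochondrial uncoupler was the plate control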
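Compound titrations (5 concentrations, 24 h) on a stable cell line; DMSO and CCCP controls. Endpoint: fixed-cell PINK1 immunofluorescence with mitochondrial, cell and nuclear markers, scanned by microplate cytometer.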
The depositor's hits bear a star; ? = inconclusive; nt = no result given; [ ] = remark or other dose.

Values in the order – Six1-Eya2 blk	D2 potentiator	PINK1 modulator	D2 ag	CtBP-E1A inh	TRPV1 potentiator	Sfp inh
> O=C(CN1CCOCC1)Nc1ccc(NC(=O)c2ccccc2F)cc1
→ -6	-6	-1.6%	-2.9	4	10	22%
> O=C(CSCc1ccccc1Br)NNC(=S)NCc1ccco1
→ -14	-3	-2.1%	-1.6	-5	9	21%
> Cc1ccsc1/C=N/NC(=O)CSCc1ccc(Cl)cc1
→ -7	-22	-0.5%	-3.9	11	-9	-4%
> COC(=O)CSc1nc(NCC(C)C)nc(N2CCOCC2)n1
→ -5	-4	nt	-2.6	-12	1	14%
> Cc1ccc(-c2csc(N(CCCN3CCOCC3)C(=O)c3ccco3)n2)cc1
→ -25	-30	-2.8%[38.3 µM]	-0.8	-22	-8	?
> O=C(CCC(=O)OCC(=O)c1cccc([N+](=O)[O-])c1)Nc1cccc(Cl)c1Cl
→ -1	-33	-1.3%	-12	4	18	10%
> CC(=O)Nc1cccc(-c2cn3ccccc3n2)c1
→ 9	1	-0.6%	-1.6	7	2	10%
> CC(=O)N1CCN(CC(C)(C)NS(=O)(=O)c2ccc(C)cc2)CC1
→ 2	-14	2.2%	3.7	-1	5	27%
> COc1ccc(OC)c(NC(=O)Nc2nc(C(N)CCc3ccccc3)cs2)c1 (centres undefined)
→ ?	-14	-1.2%	4.5	-26	nt	nt
> CCOc1ccc(NCc2cccn2-c2nnc(N3CCC(C(=O)NCCCN4CCCCC4C)CC3)s2)cc1 (centres undefined)
→ -23	-13	0.4%	1.3	nt	5	10%
> CCOc1ccccc1N(CC(=O)NC1CCCCC1)C(=O)CCC(=O)Nc1nccs1
→ 5	-5	1.7%	-8.4	-15	2	16%
> COC(=O)c1ccc(NC(=O)CN2CCOCC2)cc1
→ 2	-14	4.4%[38.3 µM]	-2.6	6	3	13%
> Cc1cc(C)n(C(=O)CCCC(=O)n2nc(C)cc2C)n1
→ 1	-5	3.0%	-2.3	1	-5	2%
> O=S(=O)(c1ccc(Cl)cc1)N1CCN(c2ncccn2)CC1
→ -18	-3	3.7%	-10	-21	-1	19%
> CCNC(=O)C1CCCN(Cc2cc(C(F)(F)F)ccc2Cl)CC1 (centres undefined)
→ 0	-22	0.9%	-6.7	4	nt	nt
> COc1ccc(-n2c(Cc3cccn3C)nnc2SCC(=O)Nc2ccccc2F)cc1
→ -9	-4	-0.3%	-2.7	-18	-12	-8%
> Cc1ccc(C(=O)Nc2ccc(N3CCN(S(C)(=O)=O)CC3)cc2)cc1C
→ 15	-1	-2.6%	-3.0	-27	-3	11%
> C#CCOCCOCCOCCNc1nc(N2CCOCC2)nc(N2CCN(C(=O)[C@H](Cc3cc4ccccc4[nH]3)n3cc([C@@H](N)Cc4ccc(O)cc4)nn3)CC2)n1
→ -2	-20	-0.1%	-3.6	-12	-2	16%
> COc1ccccc1S(=O)(=O)Nc1cc(S(=O)(=O)N2CCCCC2)ccc1N1CCOCC1
→ 3	2	2.0%	1.7	0	0	-3%
> O=C(NCc1ccccc1Cl)c1ccccc1Oc1ccccc1
→ 12	-7	9.6%	-1.7	0	-5	-17%
> Cc1cc(NC(=O)c2ccco2)ncc1NC(=O)CCc1ccccc1
→ 9	-7	-3.0%	0.6	0	17	15%
> CCc1cccc(CC)c1NC(=S)NCC(c1cccnc1)N1CCOCC1 (centres undefined)
→ 12	-20	1.8%	-0.5	7	?	1%
> O=C(N=C1SC2CS(=O)(=O)CC2N1Cc1ccccc1)C1CCCO1 (centres undefined)
→ 5	-4	0.7%	-1.0	4	8	12%
> O=C(OCc1nnc(-c2ccccc2)o1)c1ccc([N+](=O)[O-])o1
→ 4	1	0.4%	5.4	0	12	nt
> CCc1ccc(NC(=O)C2CCN(c3c(N4CCCC4)c(=O)c3=O)CC2)cc1
→ 2	-3	2.6%	2.9	16	-8	9%
> O=C(COC(=O)C1CC(=O)N(c2ccc3c(c2)OCCO3)C1)NC1CCCc2ccccc21 (centres undefined)
→ -1	-10	3.3%	-2.4	2	4	18%
> COC(=O)c1c(NC(NC(=O)c2ccccc2)(C(F)(F)F)C(F)(F)F)sc2c1CCN(C)C2
→ -10	-37	-0.5%	-2.5	6	6	30%[activator]
> CC(=O)Nc1coc2ccc(Br)cc12
→ -3	-14	-0.3%	-2.2	1	27	6%
> COc1ccccc1-c1noc(CCC(=O)Nc2cccc(C)c2)n1
→ -4	18	2.3%	-1.2	-2	13	?
> O=C(CSc1cn(Cc2ccccc2)c2ccccc12)N1CCOCC1
→ -1	-5	-0.9%	-9.3	-4	-31	10%
> CCOc1ccc(C(=O)Nc2ccc(N3CCN(C(=O)c4ccco4)CC3)cc2)cc1Br
→ 6	28	15%	1.3	10	nt	nt
> CC(=O)c1ccc(NC(=O)C(C)OC(=O)COc2ccc(C#N)cc2)cc1 (centres undefined)
→ 3	2	-0.1%	0.7	11	-7	13%
> OC1CCCN(Cc2nc(Cc3ccccc3Cl)no2)C1 (centres undefined)
→ 4	-2	-0.7%	-3.9	-14	13	12%
> CN(C)c1nc(Nc2ccccc2)nc(N(C)C)n1
→ 5	2	6.2%	-1.3	5	-1	-2%
> O=C(O)CN1CCN(Cc2ccc(F)cc2Cl)C1=O
→ 5	-9	9.5%[38.3 µM]	-3.0	4	-27	7%
> CC(=O)C(Sc1nn(C)c(=S)s1)C(=O)Nc1ccccc1 (centres undefined)
→ 4	-52	-2.1%	-13	2	-1	40µM*
> CN1CCN(c2ccc(Cl)cc2NC(=O)/C=C/c2ccc(F)cc2)CC1
→ -9	-29	-0.2%	1.7	17	1	7%
> COc1ccc(OC)c(-c2csc(NC(=O)c3ccccc3F)n2)c1
→ 11	1	12%	-1.0	0	-19	-17%
> CC1=C(C(=O)N(C)C)CC(CC(=O)NC2CC2)C(=O)N1Cc1ccc(C(C)(C)C)cc1 (centres undefined)
→ 14	3	1.3%	-1.3	11	nt	nt
> O=C(NC(=S)NCC1CCCO1)c1ccc(Cl)cc1Cl (centres undefined)
→ -2	10	5.0%	0.2	6	3	13%
> CCCCC(=O)NC(=S)Nc1cccc(NC(=O)c2ccco2)c1
→ -12	-12	-0.5%	-2.8	-5	-26	9%
> COc1cccc(CN(C)C(=O)CNC(=O)c2ccc3c(c2)OCO3)c1OC
→ -1	8	0.9%	-0.7	-3	8	18%
> CCN(CC)C(=S)SCC(=O)c1ccccc1
→ 19	-6	-1.5%	-3.0	16	13	14%
> CCOc1ccccc1NC(=O)NC(C)c1ccncc1 (centres undefined)
→ 2	-4	-0.2%	-3.0	2	6	-4%
> CCC1(c2ccc(F)cc2)NC(=O)N(CC(=O)N2CCN(S(=O)(=O)c3ccc(C)cc3C)CC2)C1=O (centres undefined)
→ -10	1	2.1%	3.7	nt	nt	nt
> CCOC(=O)C1(Cc2cccc(OC)c2)CCN(Cc2cccn2-c2nccs2)CC1
→ -15	-9	1.7%	-5.7	-19	-4	10%
> Cc1ccc(N2C(=O)c3ccccc3NC2C(C)Cc2ccc3c(c2)OCO3)cc1 (centres undefined)
→ -12	-3	nt	-3.0	-1	-1	-1%
> CCOc1ccccc1N1CCN(C(=O)/C=C/c2cccc([N+](=O)[O-])c2)CC1
→ -20	9	0.7%	-2.9	0	-4	-5%
> CN1CCN(c2ccc(Cl)cc2NC(=O)CCN2C(=O)c3ccccc3C2=O)CC1
→ -6	-11	-1.4%	-1.5	nt	-9	7%
> COc1cccc(C2NC(=S)NC3=C2CCc2ccccc23)c1 (centres undefined)
→ 4	-7	7.6%	-0.5	-9	18	50µM*
> CCCC(=O)Nc1c(C(=O)OCC)[nH]c2ccccc12
→ -6	-15	2.5%	-1.2	0	4	0%
> O=C1[C@H]2[C@@H](/C=C/c3ccccc3)N3C(=O)CN(Cc4ccccn4)C(=O)[C@@]3(Cc3ccccc3)[C@H]2C(=O)N1c1ccccc1
→ 1	3	-0.2%	3.8	6	-14	11%
> Oc1ccc(C=NN=Cc2ccco2)c(O)c1
→ -3	-13	22%	-1.4	-18	nt	nt
> CCc1ccccc1N(CC(=O)NCc1ccccc1)C(=O)CCC(=O)Nc1ccccn1
→ 9	-1	-2.1%	3.6	0	-12	6%
> O=C(NC1CCN(Cc2ccccc2)CC1)C1CCCN(S(=O)(=O)c2cccc3nonc23)C1 (centres undefined)
→ 3	-30	-1.4%	-4.0	-10	-2	-7%
> CC1CCN(C(=O)CC(NC(N)=O)c2ccccc2Cl)CC1 (centres undefined)
→ -1	-5	14%	-4.6	8	5	12%
> CCOC(=O)c1cccc(NC(=O)CN(c2ccc(C)cc2)S(=O)(=O)c2c(C)n[nH]c2C)c1
→ -2	-35	-0.3%	-2.2	0	14	3%
> Cc1nn(CCC(=O)NNC(=S)Nc2ccc([N+](=O)[O-])cc2)c(C)c1[N+](=O)[O-]
→ -1	-13	0.2%	-9.5	nt	20	-15%
> OC(Cn1cncn1)(c1ccc(F)cc1)c1ccc(Cl)cc1 (centres undefined)
→ -1	-3	1.6%	5.4	nt	-24	2%
> O=C(Cc1ccc(Cl)cc1)NNC(=O)c1cnccn1
→ -18	-9	-1.7%	-2.3	-14	-12	8%

More records follow:
Values in the order – Six1-Eya2 blk	D2 potentiator	PINK1 modulator	D2 ag	CtBP-E1A inh	TRPV1 potentiator	Sfp inh
> NC(=O)c1cc(S(=O)(=O)Nc2cccc(F)c2)co1
→ 5	-3	2.3%	-3.1	4	nt	10%
> O=C1OC(c2ccccc2)=NC12CC2c1ccc(Cl)cc1 (centres undefined)
→ 11	-27	2.2%	-3.0	4	-5	?
> COc1ccc(OCC(=O)NC(=S)Nc2ccc(S(=O)(=O)Nc3cc(OC)nc(OC)n3)cc2)cc1
→ -17	-15	0.3%	-0.1	-19	2	1%
> CC1(c2nnc(-c3ccccc3)o2)CC(c2ccc([N+](=O)[O-])cc2)=NO1 (centres undefined)
→ 10	-1	-1.1%	-1.9	9	nt	nt

Sorted by molecular weight (smallest number first): part of the list above
Values in the order – Six1-Eya2 blk	D2 potentiator	PINK1 modulator	D2 ag	CtBP-E1A inh	TRPV1 potentiator	Sfp inh
> O=C(OCc1nnc(-c2ccccc2)o1)c1ccc([N+](=O)[O-])o1
→ 4	1	0.4%	5.4	0	12	nt
> Cc1ccsc1/C=N/NC(=O)CSCc1ccc(Cl)cc1
→ -7	-22	-0.5%	-3.9	11	-9	-4%
> CCOc1ccc(C(=O)Nc2ccc(N3CCN(C(=O)c4ccco4)CC3)cc2)cc1Br
→ 6	28	15%	1.3	10	nt	nt
